# Screening data deposited in PubChem BioAssay by several laboratories.
# B2AR ag = activates human beta-2 adrenergic receptor causing internalization; actives 0.43% (n = 340,000); response, % (test concentration not listed); Am2.2-beta2AR cells, FAP receptor internalization, flow cytometry; reference of the scale not given here;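 active = response above a set limit, near 3 SD of response in nonfluorescent compounds, cut at about 42% in these data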;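 note: stock transfer was 100 nL into about 11 µL; a reference agonist was the positive control; negative values mostly stem from fluorescent compounds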
# Target sequence (P07550 whole entry, looked up): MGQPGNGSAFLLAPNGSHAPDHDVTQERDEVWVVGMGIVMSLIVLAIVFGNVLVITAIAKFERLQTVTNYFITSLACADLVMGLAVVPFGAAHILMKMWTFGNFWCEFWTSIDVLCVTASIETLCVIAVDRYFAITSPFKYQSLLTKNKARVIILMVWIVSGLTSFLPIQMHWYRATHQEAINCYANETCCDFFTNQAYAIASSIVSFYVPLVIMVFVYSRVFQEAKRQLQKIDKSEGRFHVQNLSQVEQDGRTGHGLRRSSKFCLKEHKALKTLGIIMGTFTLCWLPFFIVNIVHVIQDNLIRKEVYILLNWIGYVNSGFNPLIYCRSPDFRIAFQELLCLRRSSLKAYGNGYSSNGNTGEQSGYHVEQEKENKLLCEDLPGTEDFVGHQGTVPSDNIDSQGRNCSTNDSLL
# FGF22 binding = binders of recombinant human FGF22 by thermal shift; Q9HCT0; SYPRO orange fluorescence; percent of sucrose octasulfate shift, DMSO zero; calls only at 9.99 µM; actives 1.5% (n = 340,000);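 active = melting point raised past a set limit in the mean and every replicate; inconclusive = no clear call; three in four hits are not shown here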
# Ecoli rRNA inh = inhibits bacterial ribosomal RNA function over humanized ribosomes | E. coli WT GFP vs humanized-ribosome RFP mutants, fluorescence, 24 h; hits give low values; DMSO median 0, no signal -100 | GFP signal change (wild-type ribosome), % (test concentration not listed) | actives 1.6% (n = 350,000) | AID 720706;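 active = significant combined selectivity score with lowered wild-type GFP, culture density cut under 30%, mutant RFP and density less affected; inactive = any of these conditions unmet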; note: one replicate is shown; some compounds called inactive have numbers as strong as hits
# ALR H2O2 inh = blocks human ALR sulfhydryl oxidase activity | P55789 | purified ALR, DTT oxidation, H2O2 HRP-luminol luminescence | inhibition, % (concentration not given with the values) | actives 3.8% (n = 290,000);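 active = mean and each replicate at 75% or more; inconclusive = only one of the two met; inactive = neither met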;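 note: stock transfer was 7.5 nL into about 7.5 µL; 0% = neutral wells and 100% = wells with inactivated enzyme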
# Target sequence (P55789 whole entry, looked up): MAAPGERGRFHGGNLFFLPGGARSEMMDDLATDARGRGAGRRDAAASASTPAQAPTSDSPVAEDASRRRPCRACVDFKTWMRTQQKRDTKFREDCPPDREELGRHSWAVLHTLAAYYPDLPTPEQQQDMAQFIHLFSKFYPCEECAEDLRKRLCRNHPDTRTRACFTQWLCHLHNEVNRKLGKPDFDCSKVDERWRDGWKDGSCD
# UCH37 inh = blocks the human deubiquitinase UCH37 | Q9Y5K5 | purified proteasome/UCH37, Ub-AMC cleavage fluorescence | inhibition, % (test concentration not listed) | actives 0.33% (n = 330,000);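 active = mean of two replicates above 20%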;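 note: 0% = compound-free wells with enzyme and 100% = wells lacking proteasome; stock transfer was 100 nL into about 20 µL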
# Target sequence (Q9Y5K5 whole entry, looked up): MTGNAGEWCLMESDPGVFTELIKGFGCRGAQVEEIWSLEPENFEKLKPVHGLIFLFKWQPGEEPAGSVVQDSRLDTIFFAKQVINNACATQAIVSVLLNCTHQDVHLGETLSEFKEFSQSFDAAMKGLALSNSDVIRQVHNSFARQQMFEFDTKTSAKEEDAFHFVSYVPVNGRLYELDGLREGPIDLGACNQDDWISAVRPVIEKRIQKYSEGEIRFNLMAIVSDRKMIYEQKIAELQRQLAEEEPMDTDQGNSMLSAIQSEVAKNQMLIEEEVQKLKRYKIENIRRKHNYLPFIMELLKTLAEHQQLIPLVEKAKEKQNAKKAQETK
#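 System: Proteasome-associated human UCH37 deubiquitinase; Input: 0.15 nM proteasome in added enzyme buffer; Also added: Ub-AMC substrate from 1 µM stock; Incubation: 30 min compound-proteasome preincubation then 25 min substrate reaction, room temperature; Detection: fluorescence, ex 355 nm, em 460 nm; Read-out: % inhibition of Ub-AMC cleavage fluorescence; Benchmarks: no-proteasome and no-compound wells.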
# HNF4A DNA FP = change in binding of human HNF4 alpha to DNA; activity change, % at 10 µM; AID 1224865; HNF4a-FITC DNA binding, fluorescence polarization, 1 h; actives 0.3% (n = 360,000); in the data active = activity change above about 30%, passing the limit was not always enough;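 note: controls were the assay level and a saturating level of protein; the project sought stronger binding though the title names inhibitors; some compounds called inactive have numbers as strong as hits; positive values seem to mean higher polarization but the record does not say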
# Ecoli growth = blocks Escherichia coli growth; OD600, 23 h; hits give low values; OD600 absorbance (test concentration not listed); actives 0.21% (n = 330,000); AID 1053175;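 active = OD600 absorbance below the run mean of sample wells minus 3.6 SD, in any replicate, cut at about 0.56 in these data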;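 note: stock transfer was 300 nL into about 60 µL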
# Ecoli rRNA inh OD600 = second read-out of Ecoli rRNA inh, no call of its own (marks repeat the call); OD600 change, %; measured here: OD600 growth;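 optical density of the mix in the first replicate; 0 = DMSO median and -100 = no signal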
# Ecoli rRNA inh RFP = second read-out of Ecoli rRNA inh, no call of its own (marks repeat the call); RFP signal change, %; measured here: RFP humanized mutant strains;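 first replicate; 0 = DMSO median and -100 = no signal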
# An asterisk follows results filed as active; i = inactive; ? = inconclusive; . = not tested or not shown.
SMILES,B2AR ag,FGF22 binding,Ecoli rRNA inh,Ecoli rRNA inh OD600,Ecoli rRNA inh RFP,ALR H2O2 inh,UCH37 inh,HNF4A DNA FP,Ecoli growth
CCOC(=O)N1CCN(C(=O)c2ccccc2NC(=O)c2ccc(C(C)(C)C)cc2)CC1,2.7,i,-4.2,-2.4,1.7,-19.6,5.2,-1.8,0.696
O=C(COc1ccc(S(=O)(=O)N2CCCCC2)cc1)NCC1CCCO1 (stereo unspecified),4.2,.,14.8,12.1,0.7,-2.8,4.1,2.3,0.676
Cc1onc(-c2c(Cl)cccc2Cl)c1C(=O)N1CCCCC1,-0.1,i,2.5,3.8,0.4,2.1,1.9,0.2,0.647
Cc1ccc(NC(=O)c2ncn(CCCN(C)CCc3ccccn3)n2)cc1C,0.3,i,2.6,3.0,-0.9,.,.,5.0,.
COc1ccc(NS(=O)(=O)c2cccc3cccnc23)cc1OC,-8.0,i,17.1,-1.1,3.3,-18.5,0.7,0.4,0.647
CCOc1ccc(NC(=O)CSc2nc3ccccc3nc2N2CCCC2)cc1,-5.4,i,4.7,-12.3,-2.4,-6.9,-5.0,2.3,0.786
C=C(C)CNC(=S)/N=c1\scc(C)n1CC,-5.1,.,.,.,.,18.0,.,-2.9,.
Cc1nc2nc(-c3ccco3)[nH]n2c(=O)c1Cc1ccccc1,5.1,.,.,.,.,1.4,7.2,-5.6,0.593
CC(=O)OCCN(CCCn1c(-c2ccncc2)nc2ccccc21)c1nc(-c2ccc(C)cc2)cs1,1.4,i,12.3,6.3,-2.1,-9.7,0.6,1.8,0.683
CC12CCC(C(=O)N(CCCCN3CCN(Cc4ccccc4)CC3)C1=O)C2(C)C (stereo unspecified),0.3,i,10.9,5.7,0.0,-2.8,-0.3,2.3,0.635
Cc1ccc(NC(=O)c2cc([N+](=O)[O-])ccc2NCc2cccnc2)cc1Cl,7.3,.,.,.,.,-3.8,4.9,-4.2,0.691
COC(=O)c1ccc(N2CCN(C(=O)C3CC3)CC2)c([N+](=O)[O-])c1,3.6,i,2.5,-2.5,-2.2,-7.8,3.1,3.5,0.662
O=C(NCc1ccccn1)C1CCN(S(=O)(=O)c2ccccc2C(F)(F)F)CC1,0.5,i,4.5,5.5,1.7,.,-0.2,6.9,0.698
CS(=O)(=O)N(CC(=O)NCc1ccco1)Cc1ccc(Cl)cc1,3.3,.,.,.,.,.,2.3,-1.3,0.753
CCOC(=O)Oc1ccc2c(=O)c(Oc3cccc(C)c3)coc2c1,11.3,i,-10.4,3.5,0.0,95.9*,-30.3,1.7,0.685
NS(=O)(=O)c1ccc(CCNC(=O)C(c2ccccc2)c2ccccc2)cc1,3.8,i,.,.,.,-19.2,1.1,0.1,0.7
O=C(c1ccco1)N1CCN=C1SCc1cccc(F)c1,11.5,i,5.7,7.2,3.2,?,2.2,2.5,0.75
CN1C(=O)/C(=C/c2ccc(C(=O)NC3CCCC3)cc2)Oc2ccccc21,12.3,i,0.9,0.8,1.1,-1.2,.,-0.2,.
O=c1oc(Nc2cccc(Cl)c2)nc2ccccc12,0.6,i,-16.6,-18.3,3.1,11.7,-4.7,1.3,0.681
C#CCOc1nc2c(c(=O)n(C)c(=O)n2C)n1Cc1ccccc1,-4.3,i,-1.2,-3.7,-2.1,-4.2,1.9,-0.6,0.647
CSCCC(NS(=O)(=O)c1ccccc1F)C(=O)Nc1cccc(C)n1 (stereo unspecified),-5.2,i,4.4,4.9,0.4,1.4,5.8,1.2,0.707
CCc1noc(C)c1C(=O)OC(C)C(=O)Nc1cc([N+](=O)[O-])ccc1OC (stereo unspecified),-4.5,i,9.3,3.8,0.3,-19.2,3.8,-0.6,0.705
CCCCCCC(=O)Oc1cccc(C2=CC(=O)CC(C)(C)C2=O)c1,.,i,7.8,7.1,-1.5,.,.,-6.7,.
c1cc(SC2CCCCC2)cc(-c2nc3cnccn3c2NC2CCCCC2)c1,50.2*,i,25.6,10.5,21.1,-1.2,.,10.0,.
COc1ccc(C(=O)NCC(c2ccco2)N2CCOCC2)cc1OC (stereo unspecified),10.3,.,7.9,6.3,1.1,.,4.0,5.2,0.676
Cc1nc2cc(C(=O)O)ccc2n1C1CCCCC1,16.6,i,4.0,-6.5,1.6,-3.5,2.4,2.9,0.725
O=C1Cc2ccccc2C(c2ccc(Cl)cc2)N1 (stereo unspecified),-8.6,i,-1.4,-4.2,-1.0,7.0,2.7,1.8,0.662
Cc1cc(S(=O)(=O)Nc2cccc(C(=O)O)c2)c(C)c(S(=O)(=O)c2ccc(Cl)cc2)c1,-11.4,.,-7.2,-11.2,-2.3,3.6,4.9,2.1,0.66
CSc1ccccc1C(=O)NCCCn1ccnc1,-2.4,i,19.4,29.9,7.0,-2.4,-1.9,-0.2,0.688
Cc1cccc(N2CC(O)(c3cccs3)[N+]3=C2CCCC3)c1C (stereo unspecified),-3.2,i,10.7,2.0,2.3,-5.7,3.4,-0.3,0.693
Cc1cc(NS(=O)(=O)c2ccc(NC(=O)C(C)Oc3cccc(C)c3C)cc2)nc(C)n1 (stereo unspecified),-10.0,i,-8.6,-13.3,1.1,6.4,4.7,2.2,0.715
Cc1ccc(-c2nnc(CN3CCCCC3C)o2)cc1 (stereo unspecified),-10.4,i,3.2,9.9,0.5,.,0.8,-0.4,0.615
O=C(Nc1ccccc1Oc1ccccc1)C1CCCC1,-3.6,i,.,.,.,-2.4,2.0,-6.4,0.707
CCSC1(SCC)N=C(N)C2(C#N)C(c3ccc(OC)c(OC)c3OC)C12C#N (stereo unspecified),38.4,.,.,.,.,54.9,0.6,-0.5,0.752
CCn1c(CN2CCOCC2)nnc1SCC(=O)Nc1ccccc1C,-5.2,i,4.6,10.5,-2.6,-16.1,.,-1.5,.
COc1cccc(N/C(N)=N/c2nc(C(F)(F)F)cc(C(F)(F)F)n2)c1,-11.7,i,-56.2,-78.3,-19.6,.,1.8,-2.1,0.674
Cc1ccc(S(=O)(=O)N2CCC3(CC2)OCCO3)s1,-0.9,i,5.5,11.9,5.3,-1.3,-0.8,2.8,0.735
COC(=O)Nc1ccc(S(=O)(=O)NCc2ccccn2)cc1,0.3,i,17.2,10.9,-0.2,-5.7,1.9,2.1,0.7
CCOC(=O)c1ccc(NC(=O)c2cc3ccccc3o2)cc1,2.7,.,.,.,.,1.9,-5.7,0.1,0.714
O=C(CSc1nnnn1-c1ccccc1)Nc1ncc2c(n1)CC(c1ccccc1)CC2=O (stereo unspecified),-0.1,.,.,.,.,1.5,4.6,0.1,0.711
Cc1cc(Nc2ccccc2)n(-c2cccc(Cl)c2)n1,1.1,.,.,.,.,99.3*,1.3,2.7,0.697
NCCc1nnc(SCc2c(F)cccc2Cl)o1,3.6,i,6.7,13.4,-3.5,-49.5,-0.6,-4.8,0.72
CCOC(=O)c1c(C)n(-c2ccc(C)cc2)c2c(C(C(C)=O)C(=O)O)c(Br)c(O)c(O)c12 (stereo unspecified),-0.8,.,.,.,.,16.9,4.0,-1.9,0.69
COc1ccc(CNC(=O)CSc2nnc(C)c(=O)[nH]2)cc1,-1.7,i,4.2,-2.2,-5.8,.,-3.8,2.8,0.657
O=C1OC(c2cc(Br)c(O)c(Br)c2)c2ccccc21 (stereo unspecified),16.8,.,-51.0,-74.7,-21.3,.,2.6,-5.0,0.673
Cc1cc(C)cc(-n2nnc(C(=O)NCc3ccccc3Cl)c2N)c1,-3.3,.,.,.,.,-5.8,4.3,3.0,0.692
O=C(CSc1nnnn1C1CCCCC1)Nc1ccccc1N1CCOCC1,5.3,i,-20.8,-34.3,-1.5,.,4.9,3.0,0.697
NS(=O)(=O)c1cccc(NC(=S)NCc2ccc3c(c2)OCO3)c1,4.8,i,11.2,-0.4,4.6,-17.8,0.8,-2.8,0.685
Cc1ccc(OCc2ccc(C(=O)Nc3cc(C)on3)o2)c([N+](=O)[O-])c1,1.6,i,-3.0,10.1,0.3,-2.2,4.3,-2.2,0.751
CCc1ccccc1NC(=O)CCC(=O)c1cccs1,2.7,i,-28.2,-36.8,1.8,-0.7,2.7,-0.4,0.733
COCOCCn1cc(CN2CCS(=O)(=O)N(Cc3ccc(-c4cccc(CO)c4)cc3)C(CC(C)C)C2=O)nn1 (stereo unspecified),.,i,-9.2,-7.0,-1.4,.,.,2.4,.
CCOc1ccc(OCCC(=O)N2CCc3cc(OC)c(OC)cc3C2)cc1,-6.6,i,-0.4,2.2,-0.8,-0.4,3.6,0.2,0.694
CC1(C)CC(O)CC(C)(C)N1CC(O)COCCOc1ccc(Br)cc1 (stereo unspecified),.,.,.,.,.,-5.4,1.4,-0.6,0.667
Cc1c(C=NCCOCc2ccccc2)cnn1C,8.2,.,.,.,.,-1.8,-0.4,3.5,0.633
COc1ccc(Cn2nnc3ccccc32)cc1,-5.2,i,-46.9,-75.3,-17.0,0.5,.,0.8,.
CC(C)(C)NC(=S)NCc1ccncc1,4.7,i,2.1,1.9,1.6,.,1.1,-10.0,0.723
OC1CCCN(Cc2ccc3ccc4cccc5ccc2c3c45)C1 (stereo unspecified),-3.0,.,.,.,.,-2.0,-30.2,-14.3,0.621
CC(=O)n1cc(/C=C2/N=C(c3ccccc3)OC2=O)c2ccccc21,1.6,.,.,.,.,1.4,1.9,12.1,0.714
COc1cc(C(=S)N2CCCC2)cc(Cl)c1OCC(=O)Nc1ccc(C)cc1C,8.9,.,.,.,.,-28.3,5.3,-0.2,0.679
CC(=NNc1nc2ccccc2s1)c1ccncn1,-15.0,i,-54.2,-71.9,-13.5,.,.,-1.2,.

# Next part, overlapping the part above by three compounds.
SMILES,B2AR ag,FGF22 binding,Ecoli rRNA inh,Ecoli rRNA inh OD600,Ecoli rRNA inh RFP,ALR H2O2 inh,UCH37 inh,HNF4A DNA FP,Ecoli growth
CC(=O)n1cc(/C=C2/N=C(c3ccccc3)OC2=O)c2ccccc21,1.6,.,.,.,.,1.4,1.9,12.1,0.714
COc1cc(C(=S)N2CCCC2)cc(Cl)c1OCC(=O)Nc1ccc(C)cc1C,8.9,.,.,.,.,-28.3,5.3,-0.2,0.679
CC(=NNc1nc2ccccc2s1)c1ccncn1,-15.0,i,-54.2,-71.9,-13.5,.,.,-1.2,.
CCN(C(N)=S)c1ccccc1,-14.7,.,.,.,.,-7.7,1.3,0.5,0.763
CCOc1cc(/C=N/NC(=O)COc2ccc(Cl)cc2)ccc1OS(=O)(=O)c1ccccc1,3.9,.,.,.,.,-3.1,.,-0.4,.
Cc1cc(C)nc(NS(=O)(=O)c2ccc(Br)s2)c1,6.1,i,-6.3,-9.8,-0.9,-10.6,6.4,18.3,0.767
COc1cccc(C(=O)CSc2nnnn2C)c1,-7.8,.,.,.,.,50.8,0.2,-1.6,0.684
COc1ccccc1C1CC(c2ccc(NS(C)(=O)=O)cc2)=NN1C(=O)c1ccccc1 (stereo unspecified),2.3,i,-19.0,-24.1,5.1,-8.3,4.0,-1.4,0.728
CCc1nc2ccc(C(=O)N3CCCCC3)cn2c1N(C)CCCc1ccccc1,.,i,-47.7,-70.8,-17.1,.,.,-1.2,.
COc1ccccc1/C=C/C=c1\sc2nc(=O)c(Cc3ccccc3)nn2c1=O,6.3,i,-6.9,1.8,3.2,-1.9,.,-25.1,.

# Not all compounds are listed. The share of hits here may be higher or lower than overall.
